AID923 = qHTS Assay for Allosteric/Competitive Inhibitors of Caspase-1: Spectroscopic Profiling in AFC Spectral Region | Potency, µM (doses to about 57.5 µM), without a hit: at the top dose fluorescence increase, most hits filed as activators | AID 923, 2007 | 75,000 compounds, 1.1% hits | compound fluorescence, AFC spectral region (405/520 nm); almost no hit is shown here; active = well fitted activation curve with a large enough effect; inconclusive = small, poorly fitted or top-dose-only effect;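 also: potency is read from the fitted curve at half-maximal effect; 0% is about no effect; scaled to a free AFC standard on each plate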
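Titrations up to 57 uM read every 20 sec for 3 min (405/520 nm) with 50 nM caspase 1 and 5 uM Ac-WEHD-AFC, pH 7.5 HEPES buffer. Fluorescence-vs-time intercept gave baseline, scaled against on-plate AFC standard.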
TSHR ag = agonists of human thyroid stimulating hormone receptor; P16473; 73,000 compounds, 0.48% hits; HEK293-CNG-TSHR cells (CNG channel as cAMP sensor), membrane potential dye, cAMP; Potency, µM (highest dose often 57.1 µM), inactives show at the highest dose activation, most hits filed as activators; active = well fitted activation curve of enough size with the parental cells flat; inconclusive = any curve in the parental cells; inactive = parental cells flat and receptor cells flat or falling; also: potency is read from the fitted curve at half-maximal effect; % of control where 0% means no effect; weak receptor curves with flat parental cells got no call and are not listed
Target sequence (P16473 whole entry, looked up): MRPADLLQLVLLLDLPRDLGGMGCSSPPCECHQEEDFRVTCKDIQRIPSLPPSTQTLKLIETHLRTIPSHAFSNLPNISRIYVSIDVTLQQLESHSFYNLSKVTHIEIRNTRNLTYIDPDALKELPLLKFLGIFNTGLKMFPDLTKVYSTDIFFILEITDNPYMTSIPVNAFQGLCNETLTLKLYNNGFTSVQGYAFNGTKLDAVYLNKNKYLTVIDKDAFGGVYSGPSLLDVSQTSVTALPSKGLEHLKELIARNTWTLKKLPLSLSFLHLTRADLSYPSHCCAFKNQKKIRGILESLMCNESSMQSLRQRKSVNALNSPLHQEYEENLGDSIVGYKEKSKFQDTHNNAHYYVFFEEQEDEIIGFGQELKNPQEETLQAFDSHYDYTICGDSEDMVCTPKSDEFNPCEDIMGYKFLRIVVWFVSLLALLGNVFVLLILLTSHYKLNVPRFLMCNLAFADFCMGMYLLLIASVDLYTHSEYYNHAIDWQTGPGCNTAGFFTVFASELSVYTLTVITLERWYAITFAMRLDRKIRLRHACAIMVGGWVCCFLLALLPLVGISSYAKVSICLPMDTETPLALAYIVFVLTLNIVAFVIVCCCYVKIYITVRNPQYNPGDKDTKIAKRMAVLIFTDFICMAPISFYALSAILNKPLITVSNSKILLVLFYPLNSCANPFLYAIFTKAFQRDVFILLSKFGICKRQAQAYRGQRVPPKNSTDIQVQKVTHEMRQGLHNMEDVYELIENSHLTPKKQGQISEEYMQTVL
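HEK 293 cells stably expressing TSHR and a cAMP-gated CNG channel; parental CNG-only cells as counterscreen. Cells preloaded 60 min with membrane potential dye plus 100 uM RO 20-1724, then compound 30 min; fluorescence read at 590 nm.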
A488 autofl = compound fluoresces in the A488 spectral region; compound autofluorescence, A488 spectral region, dye equivalency; stronger effect = higher value; max dye equivalency, M; 59,000 compounds, 0.1% hits; AID 591; active = above 10 nM dye equivalent; inconclusive = 1 to 10 nM; inactive = 1 nM or less; about half of its hits are not listed in these tables;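 also: highest value over a series up to 38 µM; compound alone in buffer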
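Intrinsic compound fluorescence is measured in 100 mM Tris buffer at pH 8.0 following 15 min incubation at room temperature. Intensities at 480 nm excitation/540 nm emission are calibrated to an on-plate A488 concentration series, giving dye-equivalent concentrations.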
Resorufin autofl = compound fluoresces in the resorufin spectral region; Compound fluorescence, resorufin region 547/598 nm, buffer; stronger effect = higher value; max dye-equivalent concentration, M; 59,000 compounds, 0.04% hits; active = above 10 nM dye equivalent; inconclusive = 1 to 10 nM; inactive = 1 nM or less; a few of its hits are not listed in these tables; also: highest value over a series up to 38 µM
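Dye-equivalent concentration values derive from comparing each well's 547/598 nm fluorescence against resorufin standards included on every plate. Incubation was 15 min at room temperature in 100 mM Tris, pH 8.0.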
A647 fluor = compound fluoresces in the A647 spectral region | 59,000 tested, under 10 active | max dye-equivalent concentration, M | AID 592 | Compound fluorescence, A647 channel (570/671 nm), Tris buffer; active means above 1 µM dye equivalent; inconclusive means 0.1 to 1 µM; inactive means 0.1 µM or less;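 also: values scaled relative to a standard on each plate; highest value over a series up to 38 µM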
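Fluorescence read (570 nm ex, 671 nm em) after 15 min RT incubation of compounds in 100 mM Tris buffer, pH 8.0; values expressed as dye-equivalent concentration against a six-point A647 standard series on each plate.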
* hit, by the source's call; i = inactive; u = inconclusive; x = no result given; [ ] = dose if it differs, or a comment. Some of the compounds tested. The share of hits here may be higher or lower than overall.

SMILES	AID923	TSHR ag	A488 autofl	Resorufin autofl	A647 fluor
Cc1cc(C(=O)CSc2n[nH]c(N)n2)c(C)n1-c1cccc(F)c1	2.0%	5%[11.4 µM]	i	i	2.4e-09
Cc1cc(C)nc(/N=C2\NC(=O)CC(C(=O)O)N2c2ccc(Cl)cc2)n1 (centres undefined)	-2.5%	-13%	x	x	x
Fc1ccc(-c2cnc[nH]2)cc1	x	x	i	i	1e-09
CCCn1c(SCC(=O)Nc2c(C)cccc2C)nnc1C(C)C	1.1%	9%	i	i	1e-09
Cc1cccc(CNc2ncncc2-c2ccccc2C(F)(F)F)c1	-0.1%	x	i	i	3.1e-09
CCOC(=O)Cn1c(=O)oc2cc(S(=O)(=O)N3CCCc4ccccc43)ccc21	0.8%	-11%	x	x	x
CC(=O)c1c(C)[nH]c(C(=O)N2CCc3ccccc32)c1C	0.3%	u	i	i	2.2e-08
CC(C)C[C@H](NC(=O)OC(C)(C)C)c1nnc(SCc2cccc(F)c2)o1	-0.1%	u	i	i	7.9e-09
COc1ccc(C2/C(=C(\O)c3ccc(OC)c(Cl)c3)C(=O)C(=O)N2CCN(C)C)cc1 (centres undefined)	1.3%	4%	i	i	1e-09
OC(c1ccccn1)c1c[nH]c2ccccc12 (centres undefined)	-1.0%	6%	i	i	1.5e-08
COCCN1C(=O)c2ccc(C(=O)Nc3nccs3)cc2C1=O	2.3%	-9%	i	i	2.4e-08
O=S(=O)(NCCOC12CC3CC(CC(C3)C1)C2)c1cccc2nsnc12	2.3%	-4%	i	i	1.4e-08
CN1CCN(c2ccc(C(=O)c3ccc(F)cc3)cc2)CC1	-1.7%	16%[11.4 µM]	x	x	x
CCOC(=O)N1CCN(C(=O)Cc2ccc(C)cc2)CC1	-1.5%	4%	i	i	3.9e-08
CC1(C)C(=O)NCCN1C(=O)CSc1nccc(-c2ccc(Br)cc2)n1	0.3%	17%	i	i	1.2e-08
O=C(NCCSCc1ccccc1)c1cc(S(=O)(=O)N2CCOCC2)ccc1F	-0.3%	7%	i	i	5.5e-09
COc1ccc(C(C)(C)C)cc1NC(=O)C1CC=CCC1C(=O)O (centres undefined)	-0.3%	-1%	x	x	x
O=S(=O)(Nc1ccc(N2CCCCC2)cc1)c1cccs1	-0.8%	-4%	i	i	3.4e-09
Cc1ccc(C2/C(=C(\O)c3c(C)nc4ccccn34)C(=O)C(=O)N2CCCN2CCOCC2)o1 (centres undefined)	3.0%	-5%	i	i	2.1e-09
CCOC(=O)CSc1nnc(NC(=O)c2cccc(S(=O)(=O)N3CCCCC3)c2)s1	0.7%	-29%	i	i	1e-09
N#CCc1nc(CSc2nc3ccccc3s2)cs1	-0.7%	7%	i	i	5.9e-09
CCOc1ccc(C(c2nnnn2Cc2ccccc2)N2CCN(C(=O)c3ccco3)CC2)cc1 (centres undefined)	-2.5%	u	i	i	2e-09
Cc1ccccc1CS(=O)(=O)CCC(=O)NCCN1CCN(c2cccc(Cl)c2)CC1	-0.9%	9%	i	i	1e-09
c1ccc(OCCOc2ncnc3ccccc23)cc1	-0.9%	u	i	i	3.5e-09
COc1ccc(/C=C/C(=O)c2ccccc2O)cc1	0.3%[11.5 µM]	-6%[11.4 µM]	x	x	x

Rewritten with values under each structure: part of the list above
Second line of a record – AID923	TSHR ag	A488 autofl	Resorufin autofl	A647 fluor
N#CCc1nc(CSc2nc3ccccc3s2)cs1
 : -0.7%	7%	i	i	5.9e-09
CCOc1ccc(C(c2nnnn2Cc2ccccc2)N2CCN(C(=O)c3ccco3)CC2)cc1 (centres undefined)
 : -2.5%	u	i	i	2e-09
Cc1ccccc1CS(=O)(=O)CCC(=O)NCCN1CCN(c2cccc(Cl)c2)CC1
 : -0.9%	9%	i	i	1e-09

The list continues:
SMILES	AID923	TSHR ag	A488 autofl	Resorufin autofl	A647 fluor
C/C(N)=C(/C#N)C(=O)CSc1nnc(Nc2cccc(C)c2C)s1	0.7%	-4%[11.4 µM]	i	i	5.6e-09
CCS(=O)(=O)/N=C(\N)c1ccccc1	0.2%	-4%	i	i	1e-09
C=CCn1c(SCC(=O)Nc2ccc(C(=O)OCC)cc2)nnc1-c1cccs1	-0.9%	7%[11.4 µM]	i	i	2.3e-08
COC(=O)c1ccc(Cn2cnc3c(cnn3-c3ccc(Cl)cc3)c2=O)o1	0.4%	u	i	i	2e-09
O=C(Nc1ccc(S(=O)(=O)NC2CCCCC2)cc1)c1ccc(Br)o1	-0.1%	2%	i	i	1e-09
CN(C)C(=O)CSc1nnc2sc3ccccc3n12	1.4%	-5%[11.4 µM]	i	i	3.2e-09
Cc1nn(-c2cc(N3CCOCC3)ccc2N)c(=O)c2ccccc12	3.6%	5%	i	i	1.6e-09
CC1COC2C(O1)N(S(C)(=O)=O)CCN2S(C)(=O)=O (centres undefined)	-0.7%	-5%	x	x	x
Cn1c2ccccc2c2ncn(Cc3ccco3)c(=O)c21	5.6%	7%	i	i	1e-09
Cc1cc(=O)oc2c(CN3CCN(C)CC3)c(O)c(Cl)cc12	x	x	i	i	4.8e-08
CCN(CCCNC(=O)CCNC(=O)Cn1cnc2ccccc2c1=O)c1ccccc1	0.6%	4%[11.4 µM]	i	i	7.9e-09
COCCOC(=O)c1c(C)oc2ccc(NS(=O)(=O)c3ccc(F)cc3)cc12	1.9%	22%	x	x	x
CCCC(CCC)n1[nH]c(=O)c2c(C)cc(C)nc21	1.7%	u	i	i	1.7e-08
CCOC(=O)Nc1ccc2c(c1)N(C(=O)OC)c1ccccc1CC2	1.8%	16%	i	i	2.4e-08
CCOC(=O)c1c(NC(=O)CCN2CCOCC2)sc2c1CC(C)(C)OC2	x	x	i	i	1e-09
Cc1ccc(-n2c(Cc3cccn3C)nnc2SCC(=O)Nc2nnc(C)s2)cc1	-0.4%	6%	i	i	1e-08
Cc1ccc2nc(-c3ccccc3)cc(C(=O)O)c2c1	5.6%	2%	x	x	x
CCOC(=O)C1=C(C)N=C2SCCC(=O)N2C1c1ccc(C(=O)OC)cc1 (centres undefined)	-0.3%	17%[11.4 µM]	i	i	1.9e-08
CC1(C)CC(=O)C2=C(C1)Oc1ncn(CCCO)c(=N)c1C2c1ccccc1 (centres undefined)	0.5%	5%	i	i	1.8e-09
CCS(=O)(=O)N1CCC(C(=O)NCCCN2CCN(c3ccccc3F)CC2)CC1	0.2%	-4%	i	i	1e-09
O=C(CSc1n[nH]c(-c2ccco2)n1)Nc1sc2c(c1C(=O)Nc1ccccc1)CCCC2	0.8%	x	i	i	9.9e-09
CCC(C)N(C(=O)Cn1nnc2ccccc21)C(C(=O)NCc1ccco1)c1cccc(OC)c1 (centres undefined)	-1.8%	u	i	i	1e-09
COCn1c2ccccc2c2nnc(C(=O)O)nc21	-0.1%[11.5 µM]	1%[11.4 µM]	x	x	x
CC(C)N(Cc1nc(-c2ccccc2)no1)S(=O)(=O)c1ccccc1	-3.7%	u	x	x	x
O=c1cc(Nc2ccc3c(c2)OCCO3)[nH]c(=O)n1-c1ccc(Cl)cc1	-0.6%	5%	x	x	x

Structures above that contain a thiophene ring, fused or not:
SMILES	AID923	TSHR ag	A488 autofl	Resorufin autofl	A647 fluor
O=S(=O)(Nc1ccc(N2CCCCC2)cc1)c1cccs1	-0.8%	-4%	i	i	3.4e-09
C=CCn1c(SCC(=O)Nc2ccc(C(=O)OCC)cc2)nnc1-c1cccs1	-0.9%	7%[11.4 µM]	i	i	2.3e-08
CCOC(=O)c1c(NC(=O)CCN2CCOCC2)sc2c1CC(C)(C)OC2	x	x	i	i	1e-09
O=C(CSc1n[nH]c(-c2ccco2)n1)Nc1sc2c(c1C(=O)Nc1ccccc1)CCCC2	0.8%	x	i	i	9.9e-09

(next part)
SMILES	AID923	TSHR ag	A488 autofl	Resorufin autofl	A647 fluor
Nc1sc2c(c1C(=O)NC1CCS(=O)(=O)C1)CCCC2 (centres undefined)	-6.5%	-10%	x	x	x
Cc1cc(C)nc(SCC(=O)N2CCC(C(N)=O)CC2)n1	5.5%	-2%	i	i	1.3e-09
CCOc1ccccc1N1CC(C(=O)Nc2ccccc2N2CCOCC2)CC1=O (centres undefined)	0.5%	3%	i	i	9.1e-09
CCCSc1nc2c(cnn2-c2ccc(F)cc2)c(=O)[nH]1	0.3%	4%	x	x	x
Cc1cccc(-n2c(CNC(=O)c3ccc(S(=O)(=O)N4CCCC4)cc3)n[nH]c2=S)c1	0.0%	1%[11.4 µM]	i	i	1.3e-09
O=C(CN1CCOCC1)Nc1cc(Cl)ccc1Cl	-1.8%	4%	x	x	x
Cc1ccc(CN2C(=O)CCC2C(=O)NCCCN2CCOCC2)cc1 (centres undefined)	-0.8%	3%	i	i	1e-09
CCn1cc(C(=O)Nn2cnnc2)c(=O)c2ccc(C)nc21	-0.1%	-7%	i	i	7e-09
Cc1noc(C)c1CSc1nnnn1-c1ccc(Cl)cc1	-0.7%	12%	i	i	3.8e-08
O=C(O)C1CCCCC1C(=O)NC1CCCCC1 (centres undefined)	2.3%	0%	i	i	1e-09
Cn1c(NC(=O)c2ccc(F)c(F)c2)cc(=O)n(C)c1=O	3.5%	6%	x	x	x
CCOC(=O)C1CCN(S(=O)(=O)c2c(C)[nH]c(=O)[nH]c2=O)CC1	1.1%	-5%[11.4 µM]	i	i	4.2e-09
COC(=O)NC(CC(C)=O)c1cccc(F)c1 (centres undefined)	-3.4%[11.5 µM]	10%[11.4 µM]	x	x	x
CCOC(=O)Cn1nc(-c2ccccc2)ccc1=O	-2.0%	-5%	i	i	2.7e-08
Cc1cccc2cc(CN(CC3CCCO3)S(=O)(=O)c3ccccc3)c3nnnn3c12 (centres undefined)	-0.2%	9%	i	i	2.7e-08
COc1cccc(C2C(C(=O)c3sc(C)nc3C)=C(O)C(=O)N2CCN(C)C)c1OC (centres undefined)	1.0%	23%	i	i	6.8e-09
COc1ccc(S(=O)(=O)N2CCC(C(=O)Nc3cccc(C(C)=O)c3)CC2)cc1C	0.0%	u	i	i	1e-09
CCn1ncc2c(OCc3ccc(C#N)cc3)cc(C)nc21	0.7%	u	i	i	2.5e-08
CCc1ccc2[nH]c(=O)c(C(c3nnnn3Cc3ccccc3)N3CCOCC3)cc2c1 (centres undefined)	3.2%	7%	i	i	2.3e-08
CCOC(=O)Cn1c(CN2CCOCC2)nc2c1c(=O)[nH]c(=O)n2C	-3.6%	-13%	x	x	x
CCn1nnnc1SCC(=O)N1c2ccccc2CCc2ccccc21	-1.0%	-1%	i	i	1e-09
O=C1CC(N2CCN(c3ccccc3Cl)CC2)C(=O)N1c1ccc(F)cc1 (centres undefined)	6.7%	-4%[11.4 µM]	x	x	x
COc1ccc(C2C=C(c3ccc(C)cc3)Nc3ncnn32)cc1 (centres undefined)	x	x	i	i	1.8e-09
CCn1c(=O)c2c(nc(SCC(=O)NCC3CCCO3)n2C)n(C)c1=O (centres undefined)	0.2%	0%	i	i	1e-09
CCOc1ccc(C(=O)Nc2c3c(nn2-c2ccc(C)cc2)CS(=O)C3)cc1OCC (centres undefined)	-1.7%	-3%	x	x	x
Cc1nc2ccc(S(=O)(=O)NCC(=O)O)cc2s1	-0.3%	0%	i	i	2.3e-08
Cc1nc(C)c2c(c1C(F)(F)F)-c1ccccc1C2(F)F	-0.9%	u	i	i	1e-09
O=C(NCCc1ccncc1)c1ccccc1F	-1.5%	10%	i	i	1e-09
Cc1ccc(C(=O)CSc2nnc(COc3cccc4cccnc34)o2)cc1	-0.6%	x	i	i	5.7e-09
O=C(CSCC(=O)NC1CC1)Nc1ccccc1	-0.3%	1%	x	x	x

A draw from above in order of number of heavy atoms, rising:
SMILES	AID923	TSHR ag	A488 autofl	Resorufin autofl	A647 fluor
O=C(CN1CCOCC1)Nc1cc(Cl)ccc1Cl	-1.8%	4%	x	x	x
CCOC(=O)Cn1nc(-c2ccccc2)ccc1=O	-2.0%	-5%	i	i	2.7e-08
Cc1noc(C)c1CSc1nnnn1-c1ccc(Cl)cc1	-0.7%	12%	i	i	3.8e-08
